# D2 agonist = Beta-Arrestin HTS for Positive Allosteric Modulators of the Human D2 Dopamine Receptor: Agonists. DiscoveRx PathHunter D2 beta-arrestin, luminescence, 90 min; 100% = 57 uM dopamine signal. activation, % (concentration not given with the values). actives 0.084% (n = 360,000); in the data active = activation above about 40%; inconclusive = about 15% to 40%; inactive = below about 15%; note: compound concentration not given in the record; the text of the record calls up to 30% inactive
#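 Agonist mode: compounds alone added to overnight-plated D2 PathHunter cells for 90 min at 37 C, with 57 uM final dopamine (EC100) defining full response. Beta-arrestin recruitment detected by chemiluminescent reagent, read after 1 h at ambient temperature.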
# PINK1 expr mod = A Quantitative High throughput Screen to Identify Chemical Modulators of PINK1 Expression. PINK1 immunofluorescence, high-content cytometry, 24 h. Potency, µM (titrated, usually from 76.6 µM), for inactives: at the top dose activation (PINK1 increase), most hits filed as activators. actives 0.2% (n = 410,000); active = well fitted activation curve with a large enough effect; inconclusive = small, poorly fitted or top-dose-only effect; inactive = flat fitted curve, though single readings scatter; cell line not stated here;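 note: potency is the fitted concentration of half-maximal effect; % of control where 0% means no effect; nearly all actives have a fitted effect of over 65% in size; a mitochondrial uncoupler was the plate control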
#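 A stable cell line was treated with compounds at 5 concentrations for 24 hours, with CCCP as control. PINK1 levels and mitochondrial localization were measured by immunofluorescence with mitochondrial, cell and nuclear markers after fixation, read by laser-scanning cytometry.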
# TRPML1 agonist = qHTS for Agonists of the Human Mucolipin Transient Receptor Potential 1 (TRPML1); Mucolipin-1 (Homo sapiens), Q9GZU1; TRPML1-expressing cells, Ca2+ dye fluorescence, FDSS; host cell line not named in the record; reference of the full effect not given here; activation, % (concentration not given with the values); actives 0.12% (n = 410,000); AID 624414, 2012; in the data active = activation above about 50%; inconclusive = about 30% to 50%; inactive = below about 30%; note: 0% is about no effect; the text of the record puts the active cut at 80%
#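 In this qHTS format, compounds were pin-transferred onto Ca8-dye-loaded TRPML1-DL cells induced with Tet overnight, and intracellular Ca2+ fluorescence was recorded kinetically for 110 s after a 10 s baseline. A subsequent 4uM final 54-4 (EC80) addition followed by a second 110 s read served as the antagonist phase.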
# Six1-Eya2 inh = qHTS Assay for Inhibitors of the Six1/Eya2 Interaction; AlphaScreen GST-Six1/His-Eya2 binding, biochemical; hits give low values; control for the full effect not named in the record; activity change, % (no concentration beside the values); actives 0.56% (n = 360,000); in the data active = activity change below about -65%; inconclusive = about -30% to -65%; inactive = above about -30%; note: % is set by controls: 0 for no effect and ±100 for the full control effect; compound concentration not given in the record
# Target sequence (O00167 whole entry, looked up): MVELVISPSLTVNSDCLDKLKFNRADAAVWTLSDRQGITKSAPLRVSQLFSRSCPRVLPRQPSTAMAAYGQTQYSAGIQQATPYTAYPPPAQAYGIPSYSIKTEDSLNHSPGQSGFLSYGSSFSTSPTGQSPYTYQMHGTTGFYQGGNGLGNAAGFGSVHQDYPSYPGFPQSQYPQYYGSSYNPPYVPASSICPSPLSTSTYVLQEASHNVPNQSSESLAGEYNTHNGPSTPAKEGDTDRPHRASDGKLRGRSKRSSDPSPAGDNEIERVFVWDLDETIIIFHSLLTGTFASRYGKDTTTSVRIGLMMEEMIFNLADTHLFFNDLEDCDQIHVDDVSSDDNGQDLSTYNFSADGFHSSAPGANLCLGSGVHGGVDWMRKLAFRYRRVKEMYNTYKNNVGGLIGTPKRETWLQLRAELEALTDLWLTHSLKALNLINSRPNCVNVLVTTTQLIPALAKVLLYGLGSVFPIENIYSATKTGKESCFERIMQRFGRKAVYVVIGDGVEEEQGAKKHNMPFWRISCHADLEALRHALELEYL
# Target sequence (Q15475 whole entry, looked up): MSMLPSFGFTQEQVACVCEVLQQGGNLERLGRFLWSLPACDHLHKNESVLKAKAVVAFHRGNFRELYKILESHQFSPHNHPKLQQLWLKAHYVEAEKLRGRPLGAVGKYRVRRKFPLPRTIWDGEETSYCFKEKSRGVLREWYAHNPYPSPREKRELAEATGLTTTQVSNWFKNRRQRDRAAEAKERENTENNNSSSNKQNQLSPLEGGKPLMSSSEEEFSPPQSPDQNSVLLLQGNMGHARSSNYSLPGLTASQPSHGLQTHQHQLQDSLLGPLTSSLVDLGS
#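 Homogeneous AlphaScreen proximity assay pairing GST-Six1 with His-tagged Eya2 (added as 5X mix: 250 nM and 500 nM) in 50 mM Tris pH 8.0, 300 mM NaCl, 1 mM TCEP. Glutathione donor and nickel acceptor beads; 1 h, 37 °C, dark.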
# TRPML1 inh = qHTS for Inhibitors of the Human Mucolipin Transient Receptor Potential 1 (TRPML1); AID 624415, 2012; Mucolipin-1 (Homo sapiens), Q9GZU1; TRPML1-inducible cells, Ca2+ dye fluorescence, FDSS; hits give low values; inhibition of EC80 agonist-evoked calcium signal; activity change, negative = inhibition, % (concentration not given with the values); actives 0.02% (n = 390,000); in the data active means activity change below about -50%; inconclusive means about -30% to -50%; inactive means above about -30%;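 note: stimulus is agonist 54-4 at its EC80 concentration; % is set by controls: 0 for no effect and ±100 for the full control effect; compound concentration not given in the record; the text of the record puts the active cut at -80%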
#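 Tet-induced TRPML1-DL cells loaded with Ca8 no-wash calcium dye were read kinetically on FDSS. Compound addition was followed by EC80 agonist 54-4 (4 uM final); inhibition was read over 110 s.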
# D2 PAM = Beta-Arrestin HTS for Positive Allosteric Modulators of the Human D2 Dopamine Receptor: Potentiators | DiscoveRx D2 beta-arrestin cells, luminescence, 90 min; 100% = 57 uM dopamine signal | potentiation, % (test concentration not listed) | actives 0.23% (n = 360,000) | AID 624464, 2012; active = potentiation of 50% or more; inconclusive = 30% to 50%; inactive = 30% or less;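 note: compound concentration not given in the record; tested on top of an EC20 dose of dopamine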
#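 PathHunter D2 cells, attached overnight at 37 deg C, received compound in DMSO plus dopamine at EC20 (50 nM final) for 90 min at 37 deg C. Beta-arrestin recruitment was read as luminescence after 1 h with detection reagent at ambient temperature.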
# Numbers without * were called inactive; u = inconclusive; x = no result given; [ ] = dose if it differs, or a comment. Rows were taken by chance. About 1% of those tested had a hit in this group.
SMILES,D2 agonist,PINK1 expr mod,TRPML1 agonist,Six1-Eya2 inh,TRPML1 inh,D2 PAM
O=C(C1CCN(S(=O)(=O)c2ccccc2F)CC1)N1CCN(Cc2ccc3c(c2)OCO3)CC1,-0.3,-0.2%,0.7,-2,10,-1
CC(=O)N1CC=CC1(CC(C)C)C(=O)NCCN1CCOCC1 (stereo unspecified),-3.7,-0.5%,0.1,1,32,-2
O=C(Nc1ccccc1Cl)Nc1cccnc1Cl,3.2,1.8%,-0.4,0,-10,-10
Cc1ccc2c(c1)C(C)CC(C)(C)N2C(=O)NC1CCCCC1 (stereo unspecified),0.9,2.9%,-0.6,-4,8,-7
O=C(N/N=C\c1ccc(O)c([N+](=O)[O-])c1)C1COc2ccccc2O1 (stereo unspecified),0.1,3.1%,1.3,2,-14,-18
COc1cccc(-n2c([S-])c(C(=O)Nc3ccc(S(=O)(=O)N4CCOCC4)cc3)[n+]3cc(C(N)=O)ccc23)c1,-1.8,4.6%,-0.2,-15,-14,3
O=C(NC1CC1)c1cccc(NC(=O)c2cn3ccccc3n2)c1,-1.0,2.6%,0.6,3,3,22
CCOc1ccc(C2C3=C(CCCC3=O)N(CC(=O)O)C3=C2C(=O)CCC3)cc1,4.2,-0.4%,0.2,-6,-4,2
O=C1c2ccccc2C(=O)N1CCc1ccccc1,0.2,2.0%,0.0,1,10,-11
Cc1ccc(CNC(=O)COC(=O)CCCOc2ccc(Cl)cc2Cl)cc1,-0.2,0.2%,0.5,-10,18,1
Nc1cc(N)nc(SCCN2CCCCC2)n1,-3.0,-1.4%,1.4,-1,-10,-24
CN(C)CCN(C(=O)c1ccc2c(c1)OCCO2)c1nc2ccc(Cl)cc2s1,0.0,-1.6%,0.7,-9,13,-6
COc1ccc(S(=O)(=O)N2CCC(C(=O)N3CCc4ccccc4C3)CC2)cc1Cl,-1.4,-6.0%[38.3 µM],0.7,-6,-2,-15
CCN(CC)CCNC(=O)c1cc2c(=O)n(C)c3ccccc3c2s1,-6.0,1.2%,0.5,-21,-2,-10
COc1cccc(C(=O)N2CCN(Cc3ccccn3)CC2)c1OC,-2.5,-0.3%,-0.2,0,-3,10
COc1ccc(Cl)cc1S(=O)(=O)N(C)CC(=O)NCCCn1ccnc1,-3.9,1.1%,-1.1,6,-4,-5
Cc1ccn2c(NC(C)(C)C)c(-c3cccs3)nc2c1,-1.2,1.0%,-0.4,12,11,-1
CCOC(=O)COc1c(Br)cc(/C=C2\SC(=O)N(CC(=O)N3CCCC3)C2=O)cc1OC,0.8,10%,-0.5,-9,23,-2
C[C@H](NS(=O)(=O)c1ccccc1)C(=O)N1CCN(C(c2ccccc2)c2ccccc2)CC1,4.7,-2.6%,3.4,-12,-13,-2
NC(=O)c1ccc[n+](CC(=O)c2ccccc2)c1,3.3,-1.0%,0.3,14,-3,0
COc1ccc(C(C)NC(=O)CC23CC4CC(CC(C4)C2)C3)cc1 (stereo unspecified),4.0,-0.7%,x,10,x,-14
Cc1nnc(NNS(=O)(=O)c2ccc(Cl)cc2)[nH]c1=O,-4.0,0.1%,-0.3,-2,22,-9
N#CCCN(C(=O)COC(=O)/C=C/c1cccs1)c1ccccc1,-2.2,-3.2%,-0.2,4,13,2
CCCCc1nn2c(=O)cc(COC(=O)c3cccc(NC(=O)CCc4ccccc4)c3)nc2s1,x,-0.8%,-0.8,x,-14,x
CC(=O)Oc1ccc(N2C(=O)C3C(C2=O)C(C(=O)c2ccc(Cl)cc2)N2CCCC32)cc1 (stereo unspecified),-6.0,4.0%,0.4,-21,-10,-11
SMILES,D2 agonist,PINK1 expr mod,TRPML1 agonist,Six1-Eya2 inh,TRPML1 inh,D2 PAM
O=C(c1ccc(-c2ccccc2)cc1)c1ccccc1C(=O)N1CCOCC1,1.3,-0.9%[38.3 µM],-0.3,0,1,1
CCCCOc1cccc(C2C(C(=O)c3cccs3)=C(O)C(=O)N2Cc2cccnc2)c1 (stereo unspecified),-3.2,-0.9%,-0.3,-17,29,-17
O=C(C[n+]1ccc(C(=O)NCc2ccccc2)cc1)c1ccc(Cl)cc1,-1.0,1.1%,0.9,4,-12,-15
O=C(Nc1ccc2c(c1)OCO2)C1CCN(C(=O)c2cccs2)CC1,-3.4,-1.2%,0.4,8,6,-19
CCOC(=O)c1c(-c2ccccc2)oc2ccc(OCc3cccc(Br)c3)cc12,x,2.3%,3.2,x,14,x
CC12CCC(=O)N1C(C(=O)N1CCN(S(=O)(=O)c3cccc(Cl)c3)CC1)CS2 (stereo unspecified),-1.3,-1.7%,0.1,3,7,-5
Cc1cccc(C(=O)NCC(=O)Nc2ccc(S(=O)(=O)Nc3nc(C)cc(C)n3)cc2)c1,-2.4,1.3%,2.7,4,24,10
CNC(=O)c1cc2cc(OC)ccc2oc1=N,-3.9,-0.8%,-0.5,13,-10,-18
Cc1ccc(NC(=O)CSc2nc3cc(C(=O)NCC4CCCO4)ccc3c(=O)n2CC2CCCO2)cc1 (stereo unspecified),-0.1,-0.6%,-1.1,-2,3,-2
Cc1nn(CC(=O)NCCN2CCOCC2)c(C)c1[N+](=O)[O-],0.4,-0.5%,-0.5,1,12,-3
Cc1csc(SCC(=O)NCc2ccccc2)n1,-2.9,1.6%,-0.9,-5,1,-2
CCC(=O)N1CCc2cc(S(=O)(=O)CCC(=O)N3CCN(c4cc(C)ccc4C)CC3)ccc21,x,0.1%,-0.4,x,2,x
COc1ccccc1C(=O)Nc1ccc(S(=O)(=O)Nc2nc(C)cc(C)n2)cc1,x,3.4%,0.1,x,-10,x
Cc1sc2nc(SC3CCOC3=O)n(Cc3ccccc3)c(=O)c2c1C (stereo unspecified),-2.7,-0.6%,3.3,11,-7,-11
COc1ccccc1NS(=O)(=O)c1cccc(NC(=O)NCCCl)c1,2.8,0.4%,x,8,x,-8
O=c1oc(C2(O)CCCCC2)cc2ccc(/C=C/c3ccc(F)cc3)cc12,-4.9,8.7%,1.5,2,39,-10
CC(=O)N1N=C(c2cccc(Cl)c2)OC1c1ccc(C(C)C)cc1 (stereo unspecified),0.9,x,-0.6,6,-5,-14
CNC(=O)c1ccc(CN(C)C(=O)/C=C/c2ccc(S(=O)(=O)N3CCCCCC3)cc2)cc1,-2.6,2.0%,-0.3,6,1,-18
O=C(/C=C/c1ccccc1Cl)Nc1ccc(-c2nnc3n2CCCCC3)cc1,-2.9,2.5%,-1.1,3,4,-8
Cc1c(NC(=O)COC(=O)C2=COCCO2)cccc1[N+](=O)[O-],-4.6,-2.5%,0.1,-3,15,0
Cc1ccc(NC(=S)NNC(=S)Nc2cccc(C(F)(F)F)c2)cc1,5.0,4.1%,-0.3,1,9,-9
CC(C)c1cccc(-c2csc(C(O)c3ccc(F)c(F)c3)n2)c1 (stereo unspecified),-3.0,10%,0.0,11,x,0
Cc1cc2c(=O)n(Cc3ccco3)c(SCC(=O)NCc3ccco3)nc2s1,-2.1,u,-0.7,-2,1,-11
Cc1nn(C)c(Cl)c1/C=N/OC(=O)c1ccc(F)cc1,-2.9,3.9%,-0.1,0,1,1
CC1CCN(C(=O)c2ccc([N+](=O)[O-])o2)CC1,3.1,-1.9%,1.5,-5,13,8
SMILES,D2 agonist,PINK1 expr mod,TRPML1 agonist,Six1-Eya2 inh,TRPML1 inh,D2 PAM
CC(C)CNC(=S)N1CCC(C(=O)c2ccc3c(c2)OCCO3)CC1,-0.8,0.2%,0.3,15,-11,-10
CCCNc1sc(S(=O)(=O)CCC)nc1S(=O)(=O)c1ccc(C)cc1,-2.0,5.5%,1.2,4,-14,-9
COc1ccc(NC2CCCN(C(=O)COc3ccc(Cl)cc3C)C2)cc1OC (stereo unspecified),-0.5,4.2%,-0.3,-18,24,5
CCOC(=O)c1ccccc1N/C=C1\CCCC1=O,0.5,9.6%[38.3 µM],1.3,-5,-9,-7
COc1ccc(Nc2nccc(-c3ccc([N+](=O)[O-])cc3)n2)cc1,u,13%,1.5,-11,8,26
C[C@H](CO)N1C[C@H](C)[C@@H](CN(C)C(=O)Nc2ccc(N3CCN(C)CC3)cc2)OCc2cnnn2CCCC1=O,2.8,-0.2%,0.7,11,-7,-10
CCOc1ccc(C(=O)CCC(=O)N2CCN(S(=O)(=O)c3cccc(F)c3)CC2)cc1,1.4,-1.5%,1.0,5,1,-2
CC(C)(C)NC(=O)COC(=O)c1ccc(S(=O)(=O)N2CCCC2)cc1,-1.6,1.8%,-0.9,-11,-3,9
COc1ccc(CNC(=O)c2noc(C)c2[N+](=O)[O-])cc1,-1.3,0.7%,-0.7,3,-14,1
O=C(NCc1ccccc1Cl)[C@H]1CCCN1C(=O)[C@H]1CCCN1C(=O)c1cccs1,x,0.4%,-0.9,2,x,x
NC(=O)C1(N2CCCCC2)CCN(C(=S)Nc2cccc(Cl)c2)CC1,-4.3,-0.4%,0.8,6,15,-2
Cc1ccc(S(=O)(=O)Oc2ccccc2N2C(=O)C3CC=CCC3C2=O)cc1 (stereo unspecified),-0.8,-0.4%[38.3 µM],0.2,1,-4,6
COc1ccc(/C=C/C(=O)Nc2cc(S(=O)(=O)N3CCOCC3)ccc2OC)cc1,0.8,1.0%,1.0,-12,36,-11
O=C(Nc1nccs1)c1ccccc1Br,2.2,-0.5%,x,-1,x,-18
CC(C)(C)c1ccc(OCCC(=O)OCC(=O)NC2CCS(=O)(=O)C2)cc1 (stereo unspecified),0.6,2.3%,-0.3,1,18,-13
CSc1nnc2ccc(-c3cccs3)nn12,2.1,2.9%,-0.7,-27,20,6
COc1ccccc1N1CCN(C(=O)c2cccc(S(=O)(=O)Nc3ccccc3F)c2)CC1,0.8,0.5%,2.3,4,-2,3
COc1ccc(CCNc2c(N)n(Cc3ccccc3)c(=O)[nH]c2=O)cc1OC,-2.8,0.2%,1.0,-3,26,-17
O=C1OC(Nc2ccc3c(c2)OCO3)c2ccccc21 (stereo unspecified),1.1,-2.0%,-0.4,-5,-6,22

# Another view of part of the listing above:
# The line under a structure holds: D2 agonist, PINK1 expr mod, TRPML1 agonist, Six1-Eya2 inh, TRPML1 inh, D2 PAM
> CCCCc1nn2c(=O)cc(COC(=O)c3cccc(NC(=O)CCc4ccccc4)c3)nc2s1
 : x, -0.8%, -0.8, x, -14, x
> CC(=O)Oc1ccc(N2C(=O)C3C(C2=O)C(C(=O)c2ccc(Cl)cc2)N2CCCC32)cc1 (stereo unspecified)
 : -6.0, 4.0%, 0.4, -21, -10, -11
> O=C(c1ccc(-c2ccccc2)cc1)c1ccccc1C(=O)N1CCOCC1
 : 1.3, -0.9%[38.3 µM], -0.3, 0, 1, 1
> CCCCOc1cccc(C2C(C(=O)c3cccs3)=C(O)C(=O)N2Cc2cccnc2)c1 (stereo unspecified)
 : -3.2, -0.9%, -0.3, -17, 29, -17
